Bioassay records: PubChem, several laboratories
LANA-H2B inh – blockers of LANA interaction with H2A/H2B – biochemical, FP readout, HTS, primary screen; Protein LANA1 (Human herpesvirus 8 type P (isolate GK18)), Q9QR71; cell-free LANA-H2A/H2B peptide, fluorescence polarization; inhibition, % (concentration not given with the values); 320,000 compounds, 0.6% hits; in the data active = inhibition mostly above about 10%, no sharp cut-off; inactive = mostly below about 6.7%;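 also: stock transfer was 7.5 nL into about 10 µL; 0% = median of vehicle wells and 100% = median of positive control wells; one replicate is shown; the record names a cut of 25% in any replicate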
Beta2AR agonist – beta2AR agonists driving receptor internalization, primary screen, cell-based, FAP fluorogen, flow cytometry | 340,000 compounds, 0.43% hits | response, % (concentration not given with the values) | Am2.2-beta2AR cells; reference of the scale not given here | Beta-2 adrenergic receptor (Homo sapiens), P07550 | AID 504454, 2011;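 active = response above a set limit, near 3 SD of response in nonfluorescent compounds, cut at about 42% in these data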;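 also: stock transfer was 100 nL into about 11 µL; a reference agonist was the positive control; negative values mostly stem from fluorescent compounds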
Ecoli growth – E. coli growth inhibition, primary screen, OD600; Escherichia coli growth, 23 h; active compounds read low; 330,000 compounds, 0.21% hits; AID 1053175, 2014; OD600 absorbance (no concentration beside the values);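 active = OD600 absorbance below the run mean of sample wells minus 3.6 SD, in any replicate, cut at about 0.56 in these data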;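 also: stock transfer was 300 nL into about 60 µL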
ALR inh – inhibitors of human ALR sulfhydryl oxidase, primary screen, biochemical, H2O2 detection, HRP-luminol luminescence, single point; FAD-linked sulfhydryl oxidase ALR (Homo sapiens), P55789; purified ALR, DTT oxidation; inhibition, % (concentration not given with the values); 290,000 compounds, 3.8% hits; AID 485317, 2010;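 active = mean and each replicate at 75% or more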;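 also: stock transfer was 7.5 nL into about 7.5 µL; 0% = neutral wells and 100% = wells with inactivated enzyme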
Target sequence (P55789 whole entry, looked up): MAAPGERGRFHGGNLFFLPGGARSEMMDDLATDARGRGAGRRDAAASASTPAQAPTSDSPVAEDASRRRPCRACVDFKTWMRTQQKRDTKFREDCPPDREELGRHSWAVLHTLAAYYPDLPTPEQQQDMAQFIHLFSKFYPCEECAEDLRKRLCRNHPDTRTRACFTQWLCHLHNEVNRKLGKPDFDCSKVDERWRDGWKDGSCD
UCH37 inh – inhibitors of human UCH37 deubiquitinase, primary screen, biochemical, Ub-AMC cleavage, fluorescence | Ubiquitin carboxyl-terminal hydrolase isozyme L5 (Homo sapiens), Q9Y5K5 | purified proteasome/UCH37 | inhibition, % (concentration not given with the values) | 330,000 compounds, 0.33% hits;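 active = mean of two replicates above 20%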;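 also: 0% = compound-free wells with enzyme and 100% = wells lacking proteasome; stock transfer was 100 nL into about 20 µL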
Target sequence (Q9Y5K5 whole entry, looked up): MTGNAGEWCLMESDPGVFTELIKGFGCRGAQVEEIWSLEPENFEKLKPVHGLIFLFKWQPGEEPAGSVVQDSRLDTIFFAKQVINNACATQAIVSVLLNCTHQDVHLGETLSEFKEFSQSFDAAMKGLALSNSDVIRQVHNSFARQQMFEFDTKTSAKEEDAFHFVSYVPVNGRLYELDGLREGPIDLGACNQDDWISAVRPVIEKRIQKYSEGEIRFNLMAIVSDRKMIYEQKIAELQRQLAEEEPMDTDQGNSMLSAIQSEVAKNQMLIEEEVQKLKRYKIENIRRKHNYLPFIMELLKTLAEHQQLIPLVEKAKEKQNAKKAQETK
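Test system – human UCH37 enzyme supplied as purified proteasome complex · Incubation – 30 min preincubation with enzyme, 25 min cleavage at room temperature · Detection – AMC fluorescence from Ub-AMC cleavage, excitation 355 nm, emission 460 nm · Benchmarks – no-proteasome wells (full inhibition) and compound-free wells (no inhibition)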
FGF22 binding – binders of human FGF22 protein, primary screen, FGF22 synaptogenesis inhibitor project, biophysical, thermal shift, single point. recombinant FGF22 thermal shift, SYPRO orange fluorescence; percent of sucrose octasulfate shift, DMSO zero. calls only at 9.99 µM. 340,000 compounds, 1.5% hits. AID 651658, 2012;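 active = melting point raised past a set limit in the mean and every replicate; three in four hits are not shown here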
HNF4A DNA FP – change in binding of human HNF4A to DNA, primary screen, biochemical, fluorescence polarization, FITC-DNA; 1 h; Hepatocyte nuclear factor 4-alpha (Homo sapiens), P41235; 360,000 compounds, 0.3% hits; activity change, % at 10 µM; in the data active = activity change above about 30%, passing the limit was not always enough;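 also: controls were the assay level and a saturating level of protein; the project sought stronger binding though the title names inhibitors; some compounds called inactive have numbers as strong as hits; positive values seem to mean higher polarization but the record does not say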
Target sequence (P41235 whole entry, looked up): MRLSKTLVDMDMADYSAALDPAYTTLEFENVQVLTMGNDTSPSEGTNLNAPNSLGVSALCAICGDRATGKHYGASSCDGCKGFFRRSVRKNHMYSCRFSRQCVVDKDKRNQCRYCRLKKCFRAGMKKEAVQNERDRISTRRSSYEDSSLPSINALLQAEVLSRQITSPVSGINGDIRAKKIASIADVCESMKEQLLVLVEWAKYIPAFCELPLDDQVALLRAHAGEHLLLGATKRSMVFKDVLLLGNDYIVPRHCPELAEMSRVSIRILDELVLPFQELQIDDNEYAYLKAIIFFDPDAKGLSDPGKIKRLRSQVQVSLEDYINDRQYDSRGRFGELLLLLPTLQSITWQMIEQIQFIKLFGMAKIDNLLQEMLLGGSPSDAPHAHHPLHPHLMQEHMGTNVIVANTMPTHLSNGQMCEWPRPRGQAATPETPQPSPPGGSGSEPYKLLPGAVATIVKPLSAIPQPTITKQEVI
Numbers without * were called inactive; & = joins results of further samples.

For O=C(CC1SC(N2CCOCC2)=NC1=O)Nc1cc([N+](=O)[O-])ccc1Cl (stereo unspecified) the results were LANA-H2B inh -0.1, Beta2AR agonist 1, Ecoli growth 0.69, ALR inh -23, UCH37 inh 1.4, FGF22 binding inactive and HNF4A DNA FP -3.0.
CN1C2CCC1CC(NS(=O)(=O)c1cc(Cl)c(Cl)cc1Cl)C2 (stereo unspecified) was read as LANA-H2B inh -6.0, Beta2AR agonist -2, Ecoli growth 0.69, ALR inh -4, UCH37 inh 2.3, FGF22 binding inactive and HNF4A DNA FP 5.5.
Screening COC(=O)[C@@]1(Cc2ccc(F)cc2)[C@H]2c3cc(C(=O)N(C)C)n(Cc4ccccn4)c3C[C@H]2CN1C(=O)c1ccccc1 returned LANA-H2B inh -1.1, ALR inh -13 and UCH37 inh 3.1.
For NC(=O)c1ccc(NC(=O)c2ccc(COc3ccc(F)cc3)o2)cc1 the results were LANA-H2B inh 5.7, Beta2AR agonist -4, Ecoli growth 0.72, ALR inh 14, UCH37 inh -16, FGF22 binding inactive and HNF4A DNA FP -3.6.
Screening O=C(OCC(=O)N1CCN(c2ccc(F)cc2)CC1)c1cnc2ccccc2n1 returned LANA-H2B inh 0.6, Beta2AR agonist 3, ALR inh -6, FGF22 binding inactive and HNF4A DNA FP -0.3.
Screening CCCCC(=O)NC(=S)Nc1cccc(NC(=O)CC)c1 returned LANA-H2B inh -0.4, Beta2AR agonist -2, Ecoli growth 0.72, ALR inh -4, UCH37 inh 0.6 and HNF4A DNA FP 1.1.
For CCOc1ccc(OCCOCCn2ccnc2)cc1 the results were LANA-H2B inh -3.3, Beta2AR agonist 5, Ecoli growth 0.7, ALR inh -2, UCH37 inh 1.4 and HNF4A DNA FP -2.7.
For CC1CCN(CCc2nc3cc(NC(=O)Nc4ccccc4)ccc3n2C)CC1 the results were LANA-H2B inh -12, Beta2AR agonist -8, Ecoli growth 0.71, ALR inh 16, UCH37 inh 0.5 and HNF4A DNA FP 2.8.
For Cc1ccc(/C=C2/C(=O)ON=C2c2ccccc2)o1 the results were LANA-H2B inh -0.9, Beta2AR agonist 39, Ecoli growth 0.63, ALR inh 69, UCH37 inh 2.9, FGF22 binding inactive and HNF4A DNA FP -6.3.
COc1ccccc1OCCCCNC(C)(C)C was read as LANA-H2B inh -1.9, Beta2AR agonist 6, Ecoli growth 0.62, ALR inh -19, UCH37 inh 0.2, FGF22 binding inactive and HNF4A DNA FP 1.2.
Screening COc1ccc(NC(=O)N(C)C[C@H]2Oc3ccc(NC(=O)Nc4ccc(C(F)(F)F)cc4)cc3C(=O)N([C@H](C)CO)C[C@@H]2C)cc1 returned LANA-H2B inh -0.4, Beta2AR agonist -5, Ecoli growth 0.7, UCH37 inh 6.5, FGF22 binding inactive and HNF4A DNA FP -1.4.
Screening COc1ccccc1-c1ccc(SCC(=O)NC2CCCC2)nn1 returned LANA-H2B inh 0.9, Beta2AR agonist 3, Ecoli growth 0.66, ALR inh 1, UCH37 inh -1.8, FGF22 binding inactive and HNF4A DNA FP -0.9.
Screening CCCN(CCC)S(=O)(=O)c1ccc(Cl)c(OC)c1 returned LANA-H2B inh -4.6, Beta2AR agonist -6, ALR inh -3, FGF22 binding inactive and HNF4A DNA FP -0.2.
`CC(C)C(NC(=O)c1ccc(F)cc1)C(=O)N1CCN(C(=O)c2ccco2)CC1` (stereo unspecified) gave LANA-H2B inh 8.7, Beta2AR agonist 2, Ecoli growth 0.66, ALR inh -6, UCH37 inh 3.7, FGF22 binding inactive and HNF4A DNA FP -4.7.
`CCOc1ccccc1Nc1nc2ccccc2n2cnnc12` gave LANA-H2B inh 0.8, Beta2AR agonist -16, Ecoli growth 0.73, UCH37 inh -282, FGF22 binding inactive and HNF4A DNA FP 3.1.
Screening CC(=O)Nc1cccc(-c2nc3ccc(NC(C)=O)cc3s2)c1 returned LANA-H2B inh -1.6, Beta2AR agonist 9, Ecoli growth 0.66, ALR inh -13, UCH37 inh inactive, FGF22 binding inactive and HNF4A DNA FP 0.2.
For O=C(Nc1cc2c(oc1=O)CCCC2=O)c1ccc(Cl)cc1 the results were LANA-H2B inh 2.2, Beta2AR agonist -5, Ecoli growth 0.71, ALR inh -10, UCH37 inh 2.2 and HNF4A DNA FP -33.
Screening COc1ccc(CCNC(=S)Nc2ccccc2)cc1 returned LANA-H2B inh 13, Beta2AR agonist 0, Ecoli growth 0.71, ALR inh 3, UCH37 inh 4.6, FGF22 binding inactive and HNF4A DNA FP 2.7.
Screening CCCCOc1ccc(C(=O)NCC(=O)NCc2ccccn2)cc1 returned LANA-H2B inh 9.7, Beta2AR agonist -11, Ecoli growth 0.66, ALR inh -5, UCH37 inh 2.2, FGF22 binding inactive and HNF4A DNA FP 9.0.
Screening Oc1ccc(O)c(Cc2nc3ccccc3s2)c1 returned LANA-H2B inh 0.9, Beta2AR agonist 16, Ecoli growth 0.74, ALR inh -19, UCH37 inh 4.1, FGF22 binding inactive and HNF4A DNA FP -3.1.
For CC1=CSC2=NC(=O)/C(=C\c3cccn3-c3ccc([N+](=O)[O-])cc3)C(=N)N12 the results were LANA-H2B inh -3.2, Beta2AR agonist -5, Ecoli growth 0.66, ALR inh 1, UCH37 inh 4.3 and HNF4A DNA FP 4.1.
`C=CCSc1nnc(-c2ccccc2N=Cc2c(C)[nH]n(-c3ccccc3)c2=O)c(=O)[nH]1` gave LANA-H2B inh -2.1, Beta2AR agonist 12, Ecoli growth 0.73, ALR inh 97*, UCH37 inh 7.8 and HNF4A DNA FP 1.3.
Screening COc1cccc2sc(N)nc12 returned LANA-H2B inh -0.7, Beta2AR agonist -6, Ecoli growth 0.68, ALR inh -42, UCH37 inh -1.8, FGF22 binding inactive and HNF4A DNA FP 3.9.
O=C(COc1ccc2cc(Br)ccc2c1)N1CCOCC1 was read as LANA-H2B inh 2.6, Beta2AR agonist 8, Ecoli growth 0.7, UCH37 inh 1.5, FGF22 binding inactive and HNF4A DNA FP 0.6.
For CC(C)(C)OC(=O)C[C@H]1C/C=C\C[C@H](CC(=O)NCCO)C(=O)N2CCC[C@@H]2COC1=O the results were LANA-H2B inh 1.6, Beta2AR agonist -4, ALR inh 0, UCH37 inh 2.1, FGF22 binding inactive and HNF4A DNA FP -2.5.
For CCc1nnc(NC(=O)c2ccc(S(=O)(=O)N(CC)Cc3ccccc3)cc2)o1 the results were LANA-H2B inh 0.0, Beta2AR agonist 8, Ecoli growth 0.68, ALR inh 50, UCH37 inh -1.5 and HNF4A DNA FP 1.5.
For CCc1ccc(Nc2cc(=O)n(C3CCCCC3)c(=O)[nH]2)cc1 the results were LANA-H2B inh 3.9, Beta2AR agonist 10, Ecoli growth 0.7, ALR inh -9, UCH37 inh -1.2 and HNF4A DNA FP 0.0.
Screening CCC1(CC)NC(=O)N(CC(=O)OCn2nnc3ccccc3c2=O)C1=O returned LANA-H2B inh 1.3, Beta2AR agonist 12, Ecoli growth 0.72, UCH37 inh 1.2 and HNF4A DNA FP 1.5.
For CCOc1ccc(Oc2c(/C=N/NC(=O)COc3ccccc3OC)c(C)nn2-c2ccccc2)cc1 the results were LANA-H2B inh -3.8, Beta2AR agonist -5, ALR inh -21 and HNF4A DNA FP -1.2.
COc1ccc(-c2cc(C(=O)c3c(N)n(C)c(=O)n(C)c3=O)c3ccccc3n2)cc1OC was read as LANA-H2B inh -3.7, Beta2AR agonist 12, Ecoli growth 0.69, ALR inh -7, UCH37 inh 7.3, FGF22 binding inactive and HNF4A DNA FP 4.2.
For CCCCn1c(-c2ccco2)n[nH]c1=S the results were LANA-H2B inh 1.9, Beta2AR agonist 3, Ecoli growth 0.72, ALR inh 98*, UCH37 inh 2.1 and HNF4A DNA FP -2.2.
O=C(Nc1cc(Cl)ccc1O)C1CC(c2c(F)cccc2Cl)=NO1 (stereo unspecified) was read as LANA-H2B inh -0.5, Beta2AR agonist -2, Ecoli growth 0.68, ALR inh 1, UCH37 inh -0.2, FGF22 binding inactive and HNF4A DNA FP -3.4.
Screening Cc1ccc(S(=O)(=O)N2[C@@H](c3ccc(Br)cc3)C(C(=O)O)=CC[C@H]2c2ccc(Cl)cc2)cc1 returned Beta2AR agonist 7, Ecoli growth 0.68, UCH37 inh -4.1, FGF22 binding inactive and HNF4A DNA FP -1.8.
`COc1nc(Nc2cccc(C)c2)nc(N2CCCCC2)n1` gave LANA-H2B inh -1.9, Beta2AR agonist -4, Ecoli growth 0.65, ALR inh 1, UCH37 inh 1.1 and HNF4A DNA FP -2.2.
Screening COC(=O)c1cnn2c1C(=O)N(Cc1cccs1)CC2 returned Beta2AR agonist 6, Ecoli growth 0.71, UCH37 inh 0.8, FGF22 binding inactive and HNF4A DNA FP -3.3.
Screening COc1ccc(S(=O)(=O)N2CCOC2CNC(=O)C(=O)NCc2ccncc2)cc1 (stereo unspecified) returned LANA-H2B inh -5.4, Beta2AR agonist 3, Ecoli growth 0.68, ALR inh -11, UCH37 inh 5.0, FGF22 binding inactive and HNF4A DNA FP 1.6.
Screening Cc1cccc(NS(=O)(=O)c2cccc(C(=O)N3CCC3)c2)c1 returned LANA-H2B inh -9.2, Beta2AR agonist -8, Ecoli growth 0.7, ALR inh 2, UCH37 inh 2.5, FGF22 binding inactive and HNF4A DNA FP -1.4.
`O=S(=O)(NCCN1CCOCC1)c1ccc(Oc2ccccc2Cl)cc1` gave LANA-H2B inh 2.8, Beta2AR agonist -2, Ecoli growth 0.65, ALR inh -2, UCH37 inh 2.7, FGF22 binding inactive and HNF4A DNA FP 1.8.
Screening O=C(c1ccco1)N1CCN(S(=O)(=O)c2ccccc2)CC1 returned LANA-H2B inh -2.8, Beta2AR agonist -2, Ecoli growth 0.7, ALR inh -2, UCH37 inh 3.6, FGF22 binding inactive and HNF4A DNA FP -0.7.
For Cc1cccc(S(=O)(=O)c2c(C)cc(C)[nH]c2=O)c1 the results were LANA-H2B inh 0.4, Beta2AR agonist 8, Ecoli growth 0.63, ALR inh -2, UCH37 inh -0.9, FGF22 binding inactive and HNF4A DNA FP 2.5.
For CCOCCCNC(=O)CN1C(=O)c2ccccc2Sc2ncccc21 the results were LANA-H2B inh 7.0, Beta2AR agonist 0, Ecoli growth 0.69, ALR inh -2, UCH37 inh 1.7, FGF22 binding inactive and HNF4A DNA FP 0.6.
C=CCN(C(C(=O)OC)C(C)C)S(=O)(=O)CCNCc1ccccc1 (stereo unspecified) was read as Beta2AR agonist -12, Ecoli growth 0.69&0.69, UCH37 inh 4.6, FGF22 binding inactive and HNF4A DNA FP 3.4.

3 successive compounds already listed, for reference:
For Cc1cccc(S(=O)(=O)c2c(C)cc(C)[nH]c2=O)c1 the results were LANA-H2B inh 0.4, Beta2AR agonist 8, Ecoli growth 0.63, ALR inh -2, UCH37 inh -0.9, FGF22 binding inactive and HNF4A DNA FP 2.5.
For CCOCCCNC(=O)CN1C(=O)c2ccccc2Sc2ncccc21 the results were LANA-H2B inh 7.0, Beta2AR agonist 0, Ecoli growth 0.69, ALR inh -2, UCH37 inh 1.7, FGF22 binding inactive and HNF4A DNA FP 0.6.
C=CCN(C(C(=O)OC)C(C)C)S(=O)(=O)CCNCc1ccccc1 (stereo unspecified) was read as Beta2AR agonist -12, Ecoli growth 0.69&0.69, UCH37 inh 4.6, FGF22 binding inactive and HNF4A DNA FP 3.4.

The list is partial; rates above refer to the full screens.
